Assay outcomes as filed in PubChem.
PrP 5UTR inh – suppresses PrP 5' UTR mRNA reporter expression. cell-based PrP 5' UTR mRNA reporter, plate reader. inhibition, % (concentration not given with the values). hit rate 0.35% among 340,000. AID 488862;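 active means every replicate at 50% or more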;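 further: 0 = median of the neutral control wells; tested in H4 reporter cells; numbers are from one replicate; inactives centre near -14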
BJeLR lethal – kills HRASV12-expressing BJeLR cells. AID 1554. BJeLR (HRASV12) viability, CellTiter-Glo ATP luminescence, 48 h; reference of the scale not given here. inhibition, % (test concentration not listed). hit rate 0.17% among 300,000;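 active means replicate mean above 50%; inconclusive means above 50% but judged a plate artefact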;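 further: 50 nL library stock added to about 25 µL; numbers are from one replicate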
RN4220 kill – S. aureus RN4220 growth inhibition. OD600, 16 h. inhibition, % (test concentration not listed). AID 1259311. hit rate 0.33% among 330,000;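 active means z-score of -3 or lower and OD600 up to 0.18 on both plates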;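 further: plate controls were untreated cells for no effect and reference antibiotic for full effect; stock transfer was 100 nL into about 80 µL; one replicate is shown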
Sa ugtP lethal – compounds lethal to S. aureus RN4220 ugtP deletion mutant. growth inhibition, % (concentration not given with the values). AID 1259309. hit rate 0.54% among 330,000. OD600 growth, 16 h; some inactives read as strong as hits;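 active means z-score under -3 and OD600 up to 0.15 on both plates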;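 further: plate controls were untreated wells for no effect and antibiotic for full effect; wells of about 80 µL received 100 nL stock; the first replicate is given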
Bead autofluor – compound fluorescence in toxin protease inhibitor counterscreen | fluorescence intensity (no concentration beside the values) | AID 624483 | compound autofluorescence counterscreen, microsphere flow cytometry; hits give high values | hit rate 3.1% among 360,000;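 active means at least 3 SD above the mean of all compounds, about 16000 in these data; inconclusive means too few beads counted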;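 further: 100 nL of 1 mM stock went into each well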
Mtb hypoxia inh – inhibitors of hypoxia-regulated fluorescent reporter in Mycobacterium tuberculosis | fluorescence inhibition, % (concentration not given with the values) | M. tuberculosis hypoxia-regulated fluorescent reporter, fluorescence | AID 1159583 | hit rate 0.1% among 300,000;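 active means 35 to 45% if threefold the growth effect, above 45% if 1.5-fold the growth effect; inactive means the rest, general growth blockers included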;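 further: wells of about 50 µL received 100 nL stock; 0% = vehicle wells and 100% = reference inhibitor wells; whole bacteria with a GFP reporter of the hypoxia response; strong numbers were not always called active; many hits fall short of the cut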
Mtb hypoxia inh growth – recorded beside Mtb hypoxia inh, whose call it bears; growth inhibition, %; measured here: M. tuberculosis growth (absorbance);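 0% = vehicle and 100% = reference antibiotic; read after six days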
The depositor's hits bear a star; ? = inconclusive; nt = no result given.

Every second line gives: PrP 5UTR inh	BJeLR lethal	RN4220 kill	Sa ugtP lethal	Bead autofluor	Mtb hypoxia inh	Mtb hypoxia inh growth
- CC1(C(=O)NC2CCCCCCC2)CC1(Cl)Cl (stereo not given)
  -1.1	2.8	1.8	7.9	17224*	10.5	12.6
- CCN=C1SC(C(=O)Nc2ccc(OCC)cc2)CC(=O)N1CC (stereo not given)
  -16.9	-5.5	9.4	14.6	3333	-0.5	7.8
- CC(C)c1cccc(C(C)C)c1NC(=O)CNCc1ccccc1F
  -2.6	-9.3	6.6	5.7	2563	4.6	3.7
- CCN(CC)C(=O)c1cc2c(=O)n3ccccc3nc2s1
  -36.1	-8.1	-12.4	-4.0	5505	14.2	21.6
- CC1(C(=O)O)CCC(C(=O)Nc2ccccc2)C1(C)C (stereo not given)
  9.3	8.8	3.7	8.8	4253	2.4	-3.1
- Cc1cccc(-c2nc3c(c(SCC(=O)N4CCCC4)n2)COC(C)(C)C3)c1
  -13.6	-5.4	-2.7	-5.7	5682	-10.1	2.4
- O=C1CC(NS(=O)(=O)c2ccc3ccccc3c2)CN1c1ccccc1 (stereo not given)
  -2.4	-11.7	7.5	9.9	?	-0.9	-3.9
- Cc1cc(C)cc(NC(=O)c2cccc(NC(=O)c3ccco3)c2)c1
  -8.2	-4.5	5.8	-3.7	4213	5.9	8.8
- CC(C)[C@H](NC(=O)N1CCn2c1nc1ccccc12)C(=O)NC1CC1
  -46.4	-4.6	6.2	3.8	4284	8.8	-5.6
- O=C(O)c1cc(NN=C2c3ccccc3-c3ccccc32)ccc1Cl
  -6.5	1.7	nt	nt	6047	nt	nt
- O=C(OCC#CCSc1nnc(-c2cccc3ccccc23)o1)c1cnc[nH]1
  -5.2	nt	17.5	2.3	4095	17.7	13.2
- CCN(CC)CCCNC(=O)c1cc(Nc2ccc(OC)cc2OC)nc2ccccc12
  -7.1	4.2	3.9	1.9	3772	-2.8	-3.3
- COC(=O)C1=C(c2cccc(C#N)c2)CC2CCC1N2C(=O)NCCCOC(C)C (stereo not given)
  nt	nt	-0.6	-3.1	nt	-1.2	5.8
- Cc1cccc(N2CCN(C(=O)C(Cc3ccccc3)NC(N)=O)CC2)c1C (stereo not given)
  -18.5	-5.0	1.7	2.1	4001	-2.3	4.2
- COc1ccc(C(C)(C)C)cc1NC(=O)COC(=O)c1ccc([N+](=O)[O-])o1
  -8.8	0.4	9.1	17.8	2008	2.8	16.6
- COc1ccccc1C=NNC(=O)c1ccc(Br)cc1
  nt	nt	5.0	2.0	nt	-6.9	-2.2
- Cc1ccc(S(=O)(=O)N2CCN(C(=O)C3CSC4(C)CCC(=O)N34)CC2)cc1C (stereo not given)
  -10.6	-2.6	4.5	5.6	?	1.6	7.9
- C=CCc1cc(C)ccc1OCCOCCn1ccnc1
  -15.7	8.4	-0.2	3.2	2449	15.7	14.3
- O=C1CC(Sc2nnnn2C2CCCCC2)C(=O)N1c1ccccc1 (stereo not given)
  -0.3	-8.6	7.5	16.2	9491	11.0	-0.1
- COc1cccc(CN(C)CC(=O)Nc2ccccc2N2CCOCC2)c1OC
  8.4	-2.9	1.8	-1.9	4787	14.7	4.4
- Cc1cc(=O)[nH]c(SC(C)C(=O)Nc2cccc3ccccc23)n1 (stereo not given)
  -2.9	-1.7	2.7	1.5	4208	-0.1	-10.3
- COc1ccc(C(=O)N2N=C3CC(C)(C)OCC3C2c2ccccc2)cc1 (stereo not given)
  -24.0	-1.3	0.0	1.1	9878	4.2	-4.0
- Cn1nnnc1SCC(=O)Nc1ccccc1Cl
  -10.0	-12.5	0.7	0.3	3016	8.5	3.8
- CCOC(=O)c1sc2nc(C)nc(SCC(N)=O)c2c1C
  -45.5	-8.1	7.7	5.1	2683	9.4	2.0
- COc1ccc(C(=O)C2CCCN(Cc3cnc(C)s3)C2)cc1OC (stereo not given)
  -0.7	5.0	1.5	16.2	2626	6.6	7.4
- Cc1ccc(S(=O)(=O)NC2CCCCCC2)cc1C(N)=O
  -25.7	-1.2	0.4	-2.4	5460	-3.9	8.3
- COc1cc(C=N/N=C2/NC(=O)C(CC(=O)O)S2)ccc1OCc1ccc(Cl)cc1 (stereo not given)
  nt	nt	5.4	8.1	nt	4.4	-3.9
- COc1cc(SC)ccc1C(=O)NCCN1CCOCC1
  -29.6	-12.1	0.9	11.9	4147	12.3	-6.9
- O=c1nc(Nc2ccc(Br)cc2)sc2ccc([N+](=O)[O-])cc12
  -11.8	-6.0	3.6	2.7	nt	4.6	15.9
- Cc1ccc(C)c2[nH]c(=O)c(CN(Cc3cccnc3)C(=S)NCc3ccco3)cc12
  -11.6	-2.1	2.2	9.1	3775	14.5	4.0
- O=C(CCCc1nc2ccccc2s1)NCc1ccccc1
  -19.6	-2.5	4.1	6.8	2640	5.5	10.6
- CCC(COC)NC(=O)CCc1nnc(Cc2c[nH]c3ccccc23)o1 (stereo not given)
  -13.3	13.5	1.9	4.1	4173	-4.7	5.5
- Cc1ccc(C)c(C(=O)COC(=O)Cn2[nH]c(=O)c3ccccc3c2=O)c1
  -12.2	nt	3.8	-2.4	nt	6.8	3.4
- CCCc1cc(=O)[nH]c(SCC(=O)Nc2ccc(OC)c(S(=O)(=O)N3CCCCC3)c2)n1
  -11.0	nt	1.8	-1.6	3664	20.2	8.9
- CCOc1ccc(CCNC(=O)c2c(C)noc2C)cc1OCC
  -18.5	5.3	1.0	2.5	4357	0.0	11.3
- Cc1nc(N2CCOCC2)c2c(C)c(C(=O)Nc3ccc(C(F)(F)F)cc3)sc2n1
  -1.8	-2.0	1.2	-8.6	3446	-12.8	2.9
- COc1ccc(OC)c(NC(=O)c2ccc(Cl)cc2)c1
  -14.5	-3.1	10.0	-1.0	3437	11.7	12.8
- Cn1cc(/C=N/n2cnc3scc(-c4ccc(Cl)cc4)c3c2=O)c2ccccc21
  57.1*	33.8	nt	nt	3938	nt	nt
- O=[N+]([O-])c1ccc(-[n+]2nc(-c3ccccc3)nn2-c2ccccc2)cc1
  -3.9	8.4	-6.9	-17.0	3824	18.9	3.5
- Cc1nn(C(C)C(=O)Nc2sc3c(c2C#N)CCCC3)c(C)c1[N+](=O)[O-] (stereo not given)
  -30.3	-3.4	11.9	-20.0	13079	1.5	7.0
- NC(=S)NC(=O)c1ccccc1
  -13.0	0.9	2.5	7.7	3279	-1.1	-1.1
- Nc1cc(N)nc(SCC(=O)Nc2ccc(Br)cc2Cl)n1
  -19.3	0.0	4.8	5.2	4261	nt	nt
- CSc1cc(-c2ccc(Cl)cc2)c(C(=O)NN)s1
  -33.9	0.6	11.4	-1.9	9154	-6.6	5.9
- COc1c(Cl)cc(-c2noc(C)c2C(=O)NCc2ccc3c(c2)OCO3)cc1Cl
  -2.6	-6.2	5.7	7.7	5912	nt	nt
- CC(C)N(C(=O)[C@H]1CC(CC(=O)NCCCn2ccnc2)C(=O)N2CCc3c([nH]c4ccccc34)[C@]12C)C(C)C (stereo not given in full)
  -15.2	nt	-5.4	-6.2	3212	-11.2	1.1
- O=C1CCC(C(=O)OCc2nnc(-c3ccc(Cl)cc3)o2)=NN1
  -8.5	2.0	2.9	-5.8	6504	3.3	3.4
- O=C(CCNC(=O)C1CCN(S(=O)(=O)c2ccc(F)cc2)CC1)NC1CC1
  -12.2	6.2	-0.4	-0.8	5112	-5.9	5.7
- N/C(=N\OC(=O)CCn1cccc(C(F)(F)F)c1=O)c1ccc(Cl)cc1
  -17.0	-12.4	3.9	-1.1	3608	2.7	5.0
- CCC(C)c1ccc(C2C3=C(Nc4nc(N)[nH]c(=O)c42)c2ccccc2C3=O)cc1 (stereo not given)
  -22.5	3.8	-5.2	2.5	3672	3.7	-2.6
- COc1ccc(CN(CC2CCCO2)C(=O)CN2C(=O)COc3ccccc32)cc1OC (stereo not given)
  -6.5	-4.0	-0.8	-2.5	3722	4.9	9.4
- CCC1=C(OC(=O)N(CC)CC)N2C(=O)OC(=NCc3ccccc3)[C@]2(C)C2C1=CCC1C(=O)N(CC(=O)OC)C(=O)C12 (stereo not given in full)
  nt	nt	3.9	-1.5	nt	3.6	9.9
- CCOc1ccccc1NC(=O)CSc1nc2ccccc2nc1N1CCCC1
  -18.3	-6.2	1.4	-7.4	5511	2.0	5.4
- O=C(CCCCCNC(=O)c1ccccc1)N/N=C/c1ccco1
  -21.8	-2.3	nt	nt	2559	nt	nt
- O=C(CN1CCN(C(c2ccccc2)c2ccccc2)CC1)N1CCN(c2ccccc2)CC1
  -34.8	-11.7	-1.6	-0.7	5298	7.3	-5.0
- COc1ccc(C2=CC(=O)C[C@H](c3ccc(OC)cc3)C2)cc1
  -15.4	nt	-6.0	0.9	3474	-6.4	-13.1
- CCCCC(=O)Oc1c(S(=O)(=O)c2ccc(C)cc2)c(C)nn1C(C)(C)C
  -18.5	-9.8	-3.1	15.2	3800	-8.0	-5.4
- C#CCn1c(-c2cccs2)nc2ccccc21
  -25.6	-4.0	5.0	17.5	3399	18.0	16.0
- Cc1cc(C)n(-c2nnc(C)n2/N=C/c2ccc(O)cc2)n1
  -14.0	3.2	nt	nt	3267	nt	nt
- O=C(NC1CCCC1)C(c1ccccc1)N(C(=O)c1csnn1)c1ccccc1F (stereo not given)
  -16.8	3.3	-2.3	-3.4	3956	4.5	-1.8
- CCOc1ccc(N(CC)S(=O)(=O)c2ccc3c(c2)n(C)c(=O)c(=O)n3C)cc1
  -8.5	11.5	3.8	-12.3	4493	-6.3	-10.8

Remaining list, next part:
Every second line gives: PrP 5UTR inh	BJeLR lethal	RN4220 kill	Sa ugtP lethal	Bead autofluor	Mtb hypoxia inh	Mtb hypoxia inh growth
- Cc1ccc(C(=O)OCC(=O)c2c(N)n(C)c(=O)n(C)c2=O)cc1S(=O)(=O)N1CCOCC1
  0.5	nt	1.6	-1.4	6535	-12.6	-13.0
- Cc1nn(-c2ccccc2)c(C)c1C(=O)OCC(=O)Nc1ccccc1F
  -50.0	nt	0.0	3.8	9112	5.2	-0.3
- N=c1c(C(=O)NCc2ccc(F)cc2)cc2c(=O)n3ccccc3nc2n1Cc1cccnc1
  6.9	1.8	6.1	8.0	?	-3.1	-6.9
- CS(=O)(=O)N(CC(=O)Nc1cccc([N+](=O)[O-])c1)c1ccccc1
  -14.7	-1.7	0.6	0.3	3140	12.2	6.4
- CN(C)Cc1c(O)ccc2c(=O)c(-c3ccccc3Cl)coc12
  -10.5	6.3	2.5	15.0	3535	8.6	14.2
- C/C(=C1/SC(N2CCOCC2)=NC1=O)c1ccc(Cl)cc1
  -23.5	0.2	3.1	-6.7	11439	0.4	9.8
- CC1CCCN(C(=O)C2CCN(c3ncnc4c3nc3n4CCCCC3)CC2)C1 (stereo not given)
  -7.9	-3.7	1.4	-0.2	5752	2.2	16.9
- O=C(CCC(=O)N(CC(=O)NC1CCCCC1)Cc1cccs1)Nc1nccs1
  -2.8	8.8	1.8	5.4	3459	-5.2	5.2
- O=c1[nH]c(SCc2ccc(Cl)cc2)nc2ccccc12
  -14.8	5.0	-1.8	-0.9	4074	-5.3	6.3
- Cc1noc(NS(=O)(=O)c2ccc(N/C=C/C(=O)c3ccccc3)cc2)c1C
  -37.6	0.8	6.7	10.9	11110	5.0	11.7
- CC1CCc2c(sc(NC(=O)C(=O)NCc3ccco3)c2C#N)C1 (stereo not given)
  -11.6	5.6	-1.2	-3.1	20783*	5.9	-0.6
- Cc1c(C=NNC(N)=O)c2ccccn2c1C(=O)c1ccc(F)cc1
  nt	nt	-5.0	-0.7	nt	-6.0	-1.7

4 entries from above, set out differently:
smiles | PrP 5UTR inh | BJeLR lethal | RN4220 kill | Sa ugtP lethal | Bead autofluor | Mtb hypoxia inh | Mtb hypoxia inh growth
CN(C)Cc1c(O)ccc2c(=O)c(-c3ccccc3Cl)coc12 | -10.5 | 6.3 | 2.5 | 15.0 | 3535 | 8.6 | 14.2
C/C(=C1/SC(N2CCOCC2)=NC1=O)c1ccc(Cl)cc1 | -23.5 | 0.2 | 3.1 | -6.7 | 11439 | 0.4 | 9.8
CC1CCCN(C(=O)C2CCN(c3ncnc4c3nc3n4CCCCC3)CC2)C1 (stereo not given) | -7.9 | -3.7 | 1.4 | -0.2 | 5752 | 2.2 | 16.9
O=C(CCC(=O)N(CC(=O)NC1CCCCC1)Cc1cccs1)Nc1nccs1 | -2.8 | 8.8 | 1.8 | 5.4 | 3459 | -5.2 | 5.2

This is a random part of the collection; about 4% have a hit in one of these screens.
